VACV mCherry inh: inhibitors of vaccinia virus infection (mCherry reporter signal); hit rate 0.63% among 310,000; Potency, µM (top dose mostly 36.5 µM), inactives show at the top dose activity change, negative = inhibition, hits mostly inhibitors; Vaccinia virus mCherry reporter infection, fluorescence; about a quarter of the inactives have no number; AID 720579; active = well fitted inhibition curve with a large enough effect; inconclusive = small, poorly fitted or top-dose-only effect; inactive = no such curve, though single readings can be large or run the other way; tested in A549 cells; note: nearly all actives have a fitted effect of over 35% in size; inactives centre near -10
VACV Venus inh: inhibitors of vaccinia virus (Venus reporter); Potency, µM (highest dose often 36.5 µM), inactives show at the top dose activity change, negative = inhibition, hits mostly inhibitors; AID 720580; hit rate 0.46% among 330,000; Vaccinia virus Venus reporter expression, fluorescence; active means well fitted inhibition curve with a large enough effect; inconclusive means small, poorly fitted or top-dose-only effect; inactive means no such curve, though single readings can be large or run the other way; tested in A549 cells; note: nearly all actives have a fitted effect of over 30% in size; inactives centre near -10
Active calls of the source: *; [ ] = remark or other dose. % is set by controls: 0 for no effect and ±100 for the full control effect; potency is the fitted concentration of half-maximal effect.

For CCOC(=O)c1sc(NN=C(C(=O)OC)C(=O)OC)c(C(=O)OCC)c1C the results were VACV mCherry inh -13.7% and VACV Venus inh -15.2%.
Screening COc1ccc(NC(=O)CSc2nc3c([nH]c4ccccc43)c(=O)n2-c2ccccc2)c(OC)c1 returned VACV mCherry inh inactive and VACV Venus inh -18.2%.
O=C(Nc1ccc(Cl)cc1Cl)c1ccc(-c2ccccc2)cc1 was read as VACV mCherry inh -12.9% and VACV Venus inh -4.6%.
Screening COc1ccc(C2=NCC(=S)Nc3ccc(Cl)cc32)cc1Cl returned VACV mCherry inh -17.4% and VACV Venus inh -23.0%.
`Cc1nn(-c2ccccc2)c(C)c1/C=N/NC(=O)CSc1nc2ccccc2c(=O)n1-c1ccccc1` gave VACV mCherry inh -20.1% and VACV Venus inh -23.9%.
Screening COC(=O)C1CCN(Cc2ccc3c(c2)CN(C(=O)c2ccc4nc(C)c(C)nc4c2)CCO3)CC1 returned VACV mCherry inh -11.8% and VACV Venus inh -1.9%.
Screening Cc1ccc(NS(=O)(=O)c2ccc3[nH]c(=O)c(=O)[nH]c3c2)cc1Cl returned VACV mCherry inh -6.4% and VACV Venus inh -13.4%.
Screening C=CCn1c(C)cc(C(=O)COc2ccc(S(=O)(=O)N3CCCC3)cc2[N+](=O)[O-])c1C returned VACV mCherry inh -19.3% and VACV Venus inh -14.0%.
`COc1cc(/C=N/Nc2ccc([N+](=O)[O-])cc2S(=O)(=O)N2CCOCC2)cc(OC)c1OC` gave VACV mCherry inh -11.3% and VACV Venus inh -0.9%.
For Cc1ccc(NC(=O)CSc2ncn[nH]2)cc1S(=O)(=O)N1CCOCC1 the results were VACV mCherry inh inactive and VACV Venus inh -10.5%.
For O=C(c1cc(-c2ccc(Cl)cc2)n[nH]1)N1CCN(S(=O)(=O)c2ccc(Br)s2)CC1 the results were VACV mCherry inh 11.2µM* and VACV Venus inh inconclusive.
For COc1ccc(-c2nc3ccc(NC(=O)CO)cc3c(=O)n2Cc2cccc(Cl)c2)cc1COc1ccc(NC(C)=O)cc1 the results were VACV mCherry inh -15.4% and VACV Venus inh -10.6%.

Brought forward from above: 4 compounds, then new ones.
`COc1cc(/C=N/Nc2ccc([N+](=O)[O-])cc2S(=O)(=O)N2CCOCC2)cc(OC)c1OC` gave VACV mCherry inh -11.3% and VACV Venus inh -0.9%.
For Cc1ccc(NC(=O)CSc2ncn[nH]2)cc1S(=O)(=O)N1CCOCC1 the results were VACV mCherry inh inactive and VACV Venus inh -10.5%.
For O=C(c1cc(-c2ccc(Cl)cc2)n[nH]1)N1CCN(S(=O)(=O)c2ccc(Br)s2)CC1 the results were VACV mCherry inh 11.2µM* and VACV Venus inh inconclusive.
For COc1ccc(-c2nc3ccc(NC(=O)CO)cc3c(=O)n2Cc2cccc(Cl)c2)cc1COc1ccc(NC(C)=O)cc1 the results were VACV mCherry inh -15.4% and VACV Venus inh -10.6%.
For Cc1ccc(-c2nnc(CCC(=O)N(C)Cc3nccs3)o2)s1 the results were VACV mCherry inh -10.5% and VACV Venus inh -4.3%.
`COc1ccccc1NC(=O)c1cc2c(s1)-c1ccccc1S(=O)(=O)C2` gave VACV mCherry inh -0.9% and VACV Venus inh -10.1%.
COCc1[nH]nc2c1C(c1ccnc3ccccc13)C(C#N)=C(N)O2 (configuration not stated) was read as VACV mCherry inh inactive and VACV Venus inh -3.0%.
Screening O=C(CSc1nc2ccccc2c(=O)n1-c1ccccc1)Nc1ccc2c(c1)CCC2 returned VACV mCherry inh 16.8% and VACV Venus inh -15.1%.
Nc1cc(=O)[nH]c(=S)n1-c1cccc(C(F)(F)F)c1 was read as VACV mCherry inh inactive and VACV Venus inh -13.8%.
For CCCCN1CC(COc2ccccc2)Oc2cccc(F)c2S1(=O)=O (configuration not stated) the results were VACV mCherry inh -19.9% and VACV Venus inh -27.3%.
For Cc1cccc(-c2ocnc2C(=O)Nc2ccccc2NC(=O)c2ccccn2)c1 the results were VACV mCherry inh -27.6% and VACV Venus inh -4.3%.
COc1ccc(N(C(=O)Cc2cccs2)C(C(=O)NC2CCCCC2)c2cccn2C)cc1 (configuration not stated) was read as VACV mCherry inh -19.8% and VACV Venus inh -17.6%.
For CCOC(=O)C1CCN(C(=O)COc2ccc(N(C)S(=O)(=O)c3ccc(C)cc3)cc2)CC1 the results were VACV mCherry inh -9.7% and VACV Venus inh -23.8%.
`CSc1ccc(CN2CCC(C)(Oc3ccc(C(C)=O)cc3)C2)cc1` (configuration not stated) gave VACV mCherry inh 0.8% and VACV Venus inh -0.6%.
Screening O=C(CN1CCN(S(=O)(=O)c2ccc(Cl)cc2)CC1)Nc1ccc(F)cc1F returned VACV mCherry inh -21.7% and VACV Venus inh -14.6%.
CC(C)(C)OC(=O)C[C@H]1C/C=C\C[C@H](CC(=O)N[C@H](CO)Cc2ccccc2)C(=O)N2CCC[C@H]2COC1=O was read as VACV mCherry inh inactive and VACV Venus inh -15.8%.

Reprinted at random: two entries already listed
Screening Cc1ccc(NS(=O)(=O)c2ccc3[nH]c(=O)c(=O)[nH]c3c2)cc1Cl returned VACV mCherry inh -6.4% and VACV Venus inh -13.4%.
`CSc1ccc(CN2CCC(C)(Oc3ccc(C(C)=O)cc3)C2)cc1` (configuration not stated) gave VACV mCherry inh 0.8% and VACV Venus inh -0.6%.

Going on with the list.
CCN(c1ccccc1)S(=O)(=O)c1ccc(C(=O)NCC(c2ccccc2OC)N2CCCC2)cc1 (configuration not stated) was read as VACV mCherry inh inconclusive and VACV Venus inh inconclusive.
`CC(=O)c1cc2c(cc1NC(=O)Cc1c(C)noc1C)OCO2` gave VACV mCherry inh -8.2% and VACV Venus inh 1.7%.
`CC1O[C@@H](OC2C(COC3OC(CO)C(O)[C@H](O)C3O)OC(OC3CC[C@]4(C)C(CC[C@@]5(C)[C@@H]4CC=C4[C@@H]6CC(C)(C)CC[C@]6(CO)C(O)C[C@]45C)C3(C)C)C(O)C2O)C(O)C(O)C1O` (some centres not stated) gave VACV mCherry inh inactive and VACV Venus inh -14.8%.
`O=C(CSc1nnc(NC(=O)c2ccccc2[N+](=O)[O-])s1)NC1CCCC1` gave VACV mCherry inh -4.2% and VACV Venus inh -18.0%.
`O=C(O)c1cccc2c1C(=O)c1ccc(-c3ccc(F)cc3OCc3ccccc3)cc1S2(=O)=O` gave VACV mCherry inh -1.6% and VACV Venus inh -6.9%.
For O=c1oc(C2(O)CCCCC2)cc2ccc(-c3ccc4[nH]ccc4c3)cc12 the results were VACV mCherry inh 0.631µM* and VACV Venus inh -24.7%.
Screening CC(C)C(NC(=O)CCNC(=O)c1ccc(C(C)(C)C)cc1)c1nc2ccccc2[nH]1 (configuration not stated) returned VACV mCherry inh -6.0% and VACV Venus inh -10.6%.
For CCC1=Nc2cc(C(=O)NCCCOC)ccc2Sc2ccccc21 the results were VACV mCherry inh -29.8% and VACV Venus inh inconclusive.
Screening CN(CC(=O)Nc1ccccc1Cl)CC(=O)N1CCc2ccccc21 returned VACV mCherry inh inconclusive and VACV Venus inh -8.6%.
For C#Cc1ccc([C@@H]2C=C(C(=O)N3CCOCC3)O[C@H](OCc3ccc(CO)cc3)C2)cc1 the results were VACV mCherry inh inactive and VACV Venus inh -6.1%.
`Oc1c(C(c2ccccc2Cl)N2CCC(O)CC2)sc2nc(-c3ccco3)nn12` (configuration not stated) gave VACV mCherry inh -4.0% and VACV Venus inh -3.8%.
`NC(=O)COC(=O)C12CC3CC(CC(O)(C3)C1)C2` gave VACV mCherry inh 5.9% and VACV Venus inh 3.9%.
For O=C(CCNS(=O)(=O)c1cccc2nsnc12)NCc1ccc(F)cc1 the results were VACV mCherry inh inactive and VACV Venus inh -5.3%.
For O=C(NC1CCCCC1)C1CCCN(S(=O)(=O)c2ccc(F)cc2)C1 (configuration not stated) the results were VACV mCherry inh -12.7% and VACV Venus inh -8.5%.
Screening COc1cccc(-c2nc(S(=O)(=O)c3ccc(C)cc3)c(N3CCCCC3)o2)c1 returned VACV mCherry inh -8.0% and VACV Venus inh -0.9%.
`O=C(NC1CC1)c1ccc2sc([C@@H]3O[C@H](CO)[C@H](O)[C@H](O)[C@H]3O)nc2c1` gave VACV mCherry inh 26.4% and VACV Venus inh 11.9%.
O=C(CC(=O)Nc1ccccc1)Nc1ccccc1 was read as VACV mCherry inh -3.2%[7.34 µM] and VACV Venus inh -1.0%[7.34 µM].
Screening CCCC(=O)Nc1nnc(S(=O)(=O)N(C)Cc2ccco2)s1 returned VACV mCherry inh -11.5% and VACV Venus inh 0.1%.
Screening CCCCNC(=O)OCC(CC)NC(=O)OCC(C)C (configuration not stated) returned VACV mCherry inh -3.7% and VACV Venus inh 6.7%.
For CCC/C(O)=C1\C(=O)CC(C)(C)CC1=Nc1ccc(OC)cc1OC the results were VACV Venus inh inconclusive.
For COc1ccccc1C1=NCc2nnc(C)n2-c2ccc(Cl)cc21 the results were VACV mCherry inh inactive and VACV Venus inh -0.9%.
`Cc1ccc(/C=C(\NC(=O)c2ccccc2)C(=O)NCCN2CCOCC2)o1` gave VACV mCherry inh -5.6% and VACV Venus inh -6.4%.
For CC(=O)Nc1ccc(Cc2nc3ccccc3[nH]2)cc1 the results were VACV mCherry inh inactive and VACV Venus inh -10.3%.
Cc1ncc(CO)c(/C=N/Nc2ccc(C(F)(F)F)cn2)c1O was read as VACV mCherry inh inconclusive and VACV Venus inh -16.9%.
`CC1=NN(C(=O)COc2cc(C)ccc2C(C)C)C(O)(c2ccccc2)C1` (configuration not stated) gave VACV mCherry inh -15.0%[7.34 µM] and VACV Venus inh -8.4%[7.34 µM].
Screening Cc1ccc2nc3c(c(Nc4ccc5c(c4)OCCO5)c2c1)CCC3 returned VACV mCherry inh inconclusive and VACV Venus inh inconclusive.
`COc1cccc(C2CC(=O)NC3=C2C(=O)CCC3)c1` (configuration not stated) gave VACV Venus inh -1.5%.
Screening Cc1c(C)n(Cc2ccccc2)c2ccc(C(=O)N3CCN(c4ccccc4F)CC3)cc12 returned VACV mCherry inh -10.1% and VACV Venus inh -15.1%.
For COc1ccc(S(=O)(=O)NCC(c2cccnc2)N2CCN(c3ccccc3OC)CC2)cc1C (configuration not stated) the results were VACV Venus inh -22.7%.
For N#CC1=C(N)C2=CCCC[C@H]2[C@H](c2ccc(Br)cc2)C1(C#N)C#N the results were VACV mCherry inh -4.8% and VACV Venus inh 5.8%.
For Cc1ccc2ncc(C(=O)c3ccc(C)c(C)c3)c(S(=O)(=O)c3ccc(F)cc3)c2c1 the results were VACV mCherry inh -7.4% and VACV Venus inh 2.1%.
COc1cccc(/C=N/NC(=O)c2ccc([N+](=O)[O-])cc2Cl)c1O was read as VACV mCherry inh 11.2µM* and VACV Venus inh inconclusive.
`O=C(NNC(=O)C1CC(c2cccs2)=NO1)NC1CCCCC1` (configuration not stated) gave VACV mCherry inh -9.2% and VACV Venus inh -6.0%.
Screening COc1ccccc1CNC(=O)c1ccc(CSc2nc3ccncc3n2Cc2cccc(F)c2)cc1 returned VACV mCherry inh -17.5% and VACV Venus inh -26.7%.
COc1ccc(Nc2c3c(c(C#N)c4nc5ccccc5n24)CCC3)cc1 was read as VACV Venus inh -10.5%.
`Cn1cccc1C(=O)OCC(=O)N1CC(=O)Nc2ccccc21` gave VACV mCherry inh -10.9% and VACV Venus inh -10.4%.
For CSc1ccccc1NC(=O)N1CCCC(C(=O)c2ccc3c(c2)OCO3)C1 (configuration not stated) the results were VACV mCherry inh -1.2% and VACV Venus inh -11.0%.
O=C(O)C#CC(=O)O was read as VACV mCherry inh inactive and VACV Venus inh -13.2%.
For COc1ccc(CCN2C(=O)CC(NC34CC5CC(CC(C5)C3)C4)C2=O)cc1OC (configuration not stated) the results were VACV mCherry inh -13.4% and VACV Venus inh -13.5%.
Nc1cc(OC(=O)c2ccco2)nn1S(=O)(=O)c1ccc(F)cc1 was read as VACV mCherry inh -11.6% and VACV Venus inh -9.7%.
Screening COc1ccccc1Oc1cc(-n2nc(C)cc2C)ncn1 returned VACV mCherry inh -16.4% and VACV Venus inh -3.6%.
For CCS(=O)(=O)Nc1ccc(-c2nnc(SCC(=O)OC)o2)cc1 the results were VACV Venus inh -2.5%.
Screening Cc1ccc(S(=O)(=O)NCC(=O)NCC(=O)NCCc2ccc(Cl)cc2)cc1C returned VACV mCherry inh inconclusive and VACV Venus inh inconclusive.
`O=C(CCC1N=C2c3ccccc3N=C(SCC(=O)Nc3ccc(F)cc3)N2C1=O)NCc1ccco1` (configuration not stated) gave VACV mCherry inh -20.1% and VACV Venus inh -11.1%.
`Cc1ccc(N2C(=O)CSC23C(=O)Nc2ccccc23)cc1` (configuration not stated) gave VACV Venus inh -13.8%.
`O=C(COC(=O)C12CC3CC(CC(Br)(C3)C1)C2)Nc1cccc(S(=O)(=O)N2CCOCC2)c1` gave VACV mCherry inh inconclusive and VACV Venus inh -11.0%.
`c1cc(-c2sc(-c3ccncc3)c(-c3ccncc3)c2-c2ccncc2)ccn1` gave VACV mCherry inh inactive and VACV Venus inh 14.8%.
CCCNC(=O)C(=O)NCCC1=CCCCC1 was read as VACV Venus inh -22.2%.
NC(=O)c1ncn([C@@H]2O[C@H](CNCc3ccccc3OCc3ccc(Cl)cc3Cl)[C@@H](O)[C@H]2O)n1 was read as VACV mCherry inh -3.1% and VACV Venus inh -11.3%.
`CC(NC(=O)COC(=O)CN1C(=O)C2CCCCC2C1=O)c1ccccc1` (configuration not stated) gave VACV mCherry inh -15.2% and VACV Venus inh -1.2%.
For COCCn1c(SCC(=O)c2ccc(C)cc2)nc2cc(C(=O)NC3CCCC3)ccc2c1=O the results were VACV mCherry inh -5.3% and VACV Venus inh -8.6%.
`CCOC(=O)c1sc2nc(C)cc(C)c2c1NC(=O)c1ccco1` gave VACV Venus inh -16.2%.
For Cc1cc(S(=O)(=O)NCCN2CCOCC2)ccc1Cl the results were VACV mCherry inh inactive and VACV Venus inh 0.9%.

Source: PubChem BioAssay
